Screening data from PubChem BioAssay.
D2 agonist – Beta-Arrestin HTS for Positive Allosteric Modulators of the Human D2 Dopamine Receptor: Agonists; activation, % (concentration not given with the values); D(2) dopamine receptor (Homo sapiens), P14416; DiscoveRx PathHunter D2 beta-arrestin, luminescence, 90 min; 100% = 57 uM dopamine signal; actives 0.084% (n = 360,000); AID 624465, 2012; in the data active = activation above about 40%; inconclusive = about 15% to 40%; inactive = below about 15%; further: compound concentration not given in the record; the text of the record calls up to 30% inactive
Target sequence (P14416 whole entry, looked up): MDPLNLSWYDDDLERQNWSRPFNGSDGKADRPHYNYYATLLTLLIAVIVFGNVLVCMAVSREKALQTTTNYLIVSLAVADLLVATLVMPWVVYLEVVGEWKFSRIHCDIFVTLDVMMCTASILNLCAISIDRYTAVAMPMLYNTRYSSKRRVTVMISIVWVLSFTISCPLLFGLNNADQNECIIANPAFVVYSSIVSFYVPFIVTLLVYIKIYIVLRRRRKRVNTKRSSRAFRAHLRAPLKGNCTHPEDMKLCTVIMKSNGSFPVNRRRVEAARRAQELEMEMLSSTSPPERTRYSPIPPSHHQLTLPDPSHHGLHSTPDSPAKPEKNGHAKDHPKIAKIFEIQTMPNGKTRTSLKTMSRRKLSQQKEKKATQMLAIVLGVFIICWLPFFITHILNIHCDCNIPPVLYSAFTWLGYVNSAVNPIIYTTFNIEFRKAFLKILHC
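Agonist mode: compounds alone added to overnight-plated D2 PathHunter cells for 90 min at 37 C, with 57 uM final dopamine (EC100) defining full response. Beta-arrestin recruitment detected by chemiluminescent reagent, read after 1 h at ambient temperature.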
CtBP-E1A inh – qHTS Assay for Inhibitors of the CtBP/E1A Interaction; actives 0.49% (n = 340,000); CtBP / adenovirus E1A interaction (AlphaScreen); activity change, % (concentration not given with the values); AlphaScreen GST-E1A/His-CtBP binding, 1536-well; stronger effect = lower value; control for the full effect not named in the record; in the data active means activity change below about -65%; inconclusive means about -30% to -65%; inactive means above about -30%; further: on the % scale 0 is the no-effect control and ±100 the full control effect
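Protein mix (5X: 125 nM each GST-E1A, His-CtBP) was incubated with pinned compound 2 h at 37 deg C in dark, in 50 mM Tris pH 8.0 buffer with 300 mM NaCl. Glutathione donor and nickel acceptor beads followed; AlphaScreen signal read after 1 h.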
D2 potentiator – Beta-Arrestin HTS for Positive Allosteric Modulators of the Human D2 Dopamine Receptor: Potentiators. actives 0.23% (n = 360,000). DiscoveRx D2 beta-arrestin cells, luminescence, 90 min; 100% = 57 uM dopamine signal. potentiation, % (test concentration not listed); active = potentiation of 50% or more; inconclusive = 30% to 50%; inactive = 30% or less;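 further: compound concentration not given in the record; tested on top of an EC20 dose of dopamine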
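PathHunter D2 cells, attached overnight at 37 deg C, received compound in DMSO plus dopamine at EC20 (50 nM final) for 90 min at 37 deg C. Beta-arrestin recruitment was read as luminescence after 1 h with detection reagent at ambient temperature.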
TRPML1 ag – qHTS for Agonists of the Human Mucolipin Transient Receptor Potential 1 (TRPML1); TRPML1-expressing cells, Ca2+ dye fluorescence, FDSS; host cell line not named in the record; reference of the full effect not given here; activation, % (concentration not given with the values); actives 0.12% (n = 410,000); AID 624414, 2012; in the data active = activation above about 50%; inconclusive = about 30% to 50%; inactive = below about 30%; further: 0% is about no effect; the text of the record puts the active cut at 80%
Target sequence (Q9GZU1 whole entry, looked up): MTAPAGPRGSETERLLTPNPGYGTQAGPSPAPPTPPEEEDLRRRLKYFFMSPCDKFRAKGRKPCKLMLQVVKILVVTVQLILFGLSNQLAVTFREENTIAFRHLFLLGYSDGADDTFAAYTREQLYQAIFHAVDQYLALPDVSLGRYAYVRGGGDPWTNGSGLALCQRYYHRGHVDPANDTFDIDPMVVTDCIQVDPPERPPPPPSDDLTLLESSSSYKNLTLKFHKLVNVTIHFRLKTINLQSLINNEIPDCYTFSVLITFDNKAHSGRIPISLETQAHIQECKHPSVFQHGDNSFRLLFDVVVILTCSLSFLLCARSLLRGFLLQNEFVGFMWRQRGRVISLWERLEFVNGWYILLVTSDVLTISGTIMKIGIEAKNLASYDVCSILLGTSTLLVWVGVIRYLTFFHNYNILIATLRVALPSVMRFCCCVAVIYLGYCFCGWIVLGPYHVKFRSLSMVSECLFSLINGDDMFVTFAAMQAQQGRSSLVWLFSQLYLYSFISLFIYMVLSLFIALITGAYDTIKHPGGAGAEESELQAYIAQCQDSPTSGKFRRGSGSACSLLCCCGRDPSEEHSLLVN
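Kinetic FDSS Ca2+ read in Tet-induced TRPML1-DL cells (ABD Ca8 dye plus quencher, 45-90 min RT loading): baseline, then compound, then 110 s agonist window; EC80 agonist 54-4 at 4uM final added afterwards for a 110 s antagonist window.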
PINK1 expr mod – A Quantitative High throughput Screen to Identify Chemical Modulators of PINK1 Expression. PINK1 immunofluorescence, high-content cytometry, 24 h. Potency, µM (doses to about 76.6 µM), for the others: top-dose activation (PINK1 increase), hits mostly activators. actives 0.2% (n = 410,000). AID 624263, 2012; active = well fitted activation curve with a large enough effect; inconclusive = small, poorly fitted or top-dose-only effect; inactive = flat fitted curve, though single readings scatter; cell line not stated here;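 further: potency means the concentration at half of the fitted maximal effect; % of control where 0% means no effect; nearly all actives have a fitted effect of over 65% in size; a mitochondrial uncoupler was the plate control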
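A stable cell line was treated with compounds at 5 concentrations for 24 hours, with CCCP as control. PINK1 levels and mitochondrial localization were measured by immunofluorescence with mitochondrial, cell and nuclear markers after fixation, read by laser-scanning cytometry.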
Six1-Eya2 blk – qHTS Assay for Inhibitors of the Six1/Eya2 Interaction; AID 651725, 2012; activity change, % (test concentration not listed); AlphaScreen GST-Six1/His-Eya2 binding, biochemical; stronger effect = lower value; control for the full effect not named in the record; actives 0.56% (n = 360,000); in the data active = activity change below about -65%; inconclusive = about -30% to -65%; inactive = above about -30%; further: on the % scale 0 is the no-effect control and ±100 the full control effect; compound concentration not given in the record
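Six1/Eya2 binding was read as AlphaScreen signal after compounds were pinned into GST-Six1 plus His-tagged Eya2 (5X stock 250/500 nM) in pH 8.0 Tris/NaCl/TCEP buffer, beads added, then incubated 1 h, 37 C, dark.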
An asterisk follows results filed as active; x = not tested or not shown; & = joins results of further samples; [ ] = another dose, or the depositor's remark.

SMILES	D2 agonist	CtBP-E1A inh	D2 potentiator	TRPML1 ag	PINK1 expr mod	Six1-Eya2 blk
Cc1cc(C)cc(N2C(=O)C=CC2=O)c1	-6.1	-0.2	-51.3	-0.3	-1.2%	-2.7
Cc1ccc([C@H]2C[C@@H](O)[C@H](n3cc(COC(=O)c4ccccc4)nn3)CN2C(=O)C2CCCCC2)cc1	-0.6	-11.1	x	x	1.6%	-2.3
O=C(NCc1ccccc1Cl)C1CC(=O)N(Cc2ccccc2)C1 (stereo not given)	-4.4	-22.5	-4.3	-0.2	-0.9%	-1.8
Cn1c(=O)c2c(ncn2CC(=O)Nc2nc(-c3ccccc3Cl)cs2)n(C)c1=O	0.7	-3.6	-8.6	-0.2	19.8%[38.3 µM]	-7.3
CS(=O)(=O)CCC(C(=O)OCC(=O)c1ccc(Cl)cc1)N1C(=O)c2ccccc2C1=O (stereo not given)	-3.2	12.2	-9.0	0.1	-0.7%	8.4
O=C(NC(=S)Nc1ccccn1)c1ccco1	-1.5	-26.0	-18.0	1.5	0.5%	-28.7
Cc1ccccc1NC(=O)c1cccc(S(=O)(=O)N2CCCCC2)c1	3.8	5.7	-5.8	-0.6	2.6%	-6.2
O=c1oc2c(CN3CCOCC3)c(O)ccc2c2c1CCCC2	-0.5	-2.6	-44.1	0.2	-0.3%	-2.7
COCCNC(=O)c1onc(CSc2ccc(F)cc2)c1C(=O)NCCOC	-1.7	4.3	-4.6	-0.1	2.7%	2.1
Cc1cc(/C=C2\C(=N)N3N=C(CC(=O)N4CCOCC4)SC3=NC2=O)c(C)n1Cc1ccccc1	0.6	x	-1.4	2.8	-0.9%	1.5
CC(O)CNC1c2ccccc2CC1O (stereo not given)	-0.1	3.6	-2.7	0.8	-0.1%	1.0
C[C@@H]1CCCCO[C@@H](CN(C)C(=O)CCCN(C)C)[C@@H](C)CN([C@H](C)CO)C(=O)c2cc(N(C)C)ccc2O1	-5.5	4.6	-7.6	-0.1	0.5%	-1.6
CC(=O)Nc1ccc(S(=O)(=O)N2CCC(N3CCCCC3)CC2)cc1	-4.5	6.0	1.6	-0.2	-0.8%	9.2
S=c1[nH]nc(C2CCCCC2)n1Cc1ccccc1	14.8	-2.7	-4.0	0.2	1.8%	-2.3
O=C1O/C(=C/c2ccccc2)c2ccccc21	2.1	23.0	18.8	-0.7	1.7%	24.3
Cc1ccc(NC(=O)C2(C)CCN2Cc2csc3ccccc23)cc1 (stereo not given)	-5.3	1.8	-7.5	-0.2	3.2%	-1.6
O=C(COc1ccc2ccccc2c1)NNC(=O)Nc1ccc(F)cc1F	-3.8	-4.7	-1.8	-0.3	0.6%	-2.2
N#Cc1ccccc1CN1C(=O)NC(Cc2c[nH]c3ccccc23)C1=O (stereo not given)	2.6	-2.8	8.8	0.6	1.4%	-3.3
CC(C)CCN1C(N(C)C)=NC[C@@H]1C	-3.4	0.3	-11.0	-0.1	-0.4%	13.0
COc1cccc(NC(=S)N(CCN(C)C)C(C)c2ccco2)c1 (stereo not given)	1.0	0.2	-9.6	1.5	-0.4%	1.3
Cc1ccc(/C(O)=C/C(=O)C(=O)NNC(=O)C(O)(c2ccccc2)c2ccccc2)cc1	-1.8	-15.7	-11.3	0.4	-7.3%[38.3 µM]	-12.2
Cc1cccc(N2C(=O)CN(Cc3ccccc3)C2=S)c1	7.2	4.5	8.6	2.5	0.8%	0.7
Cc1ccc(CSC2=Nc3ccccc3C3=NC(CCC(=O)NCc4ccco4)C(=O)N23)cc1 (stereo not given)	-4.4	-5.9	-8.3	0.4	3.5%	-0.4
CNC(=O)Nc1ccc(S(N)(=O)=O)cc1	1.6	-5.0	-1.7	2.0	1.3%	0.5
CCc1ccc(/C(C)=N/Nc2cc(Cl)nc(C)n2)cc1	-2.3	2.7	-22.1	-0.4	7.5%[38.3 µM]	0.0
CCCc1nnc(NC(=O)c2ccncc2)s1	4.8	3.3	12.5	0.7	12.3%[38.3 µM]	3.4
O=C(NNc1ccccc1[N+](=O)[O-])Nc1ccccc1	2.5	-4.5	-11.9	-0.8	3.2%[38.3 µM]	-5.7
NC(=O)CC(NC(=O)Cc1cccc2ccccc12)c1ccc(NC2CCC2)c([N+](=O)[O-])c1 (stereo not given)	-2.3	0.4	-0.6	0.0	4.2%	-2.2
CC(=O)N1CCc2nc3ccccc3cc21	-1.4	-17.0	-8.7	0.4	-0.3%	-2.1
CCOC(=O)/C(C#N)=C/Nc1ccsc1C(=O)OC	0.2	5.8	-2.8	-0.4	-0.1%	7.0
O=C(CSC1=Nc2ccccc2C2=NC(CC(=O)NCc3ccco3)C(=O)N12)NCC1CCCO1 (stereo not given)	-2.4	2.2	10.7	-0.2	1.7%	1.0
Cc1cc(-c2nc(C)c(C(=O)NN)s2)no1	11.0	-11.0	14.0	1.2	11.1%	-0.6
CCCCC(=O)Nc1ccc(N2CCCC2)cc1	2.3	-2.9	-2.2	-1.1	0.6%	-15.6
COc1ccccc1C(=O)NC(=O)COC(=O)CCS(=O)(=O)c1ccc(C)cc1	0.4	-8.7	-4.1	0.1	1.0%	8.7
COc1ccc(C(=O)c2sc3nc(-c4ccccc4)ccc3c2N)cc1OC	0.8	12.6	22.4	12.1	10.5%	6.1
O=C1c2cccc(OCC(=O)N3CCCc4ccccc43)c2CCN1Cc1cccnc1	2.2	-24.0	-1.2	-0.2	4.1%	-8.9
O=C(NCCc1ccccc1)c1ccc(Cl)c([N+](=O)[O-])c1	4.0	4.4	-1.1	0.2	-3.5%[38.3 µM]	-1.3
CCCOc1ccc(CCC(=O)N/N=C/c2ccco2)cc1	1.1	-0.2	-4.0	0.8	0.0%	-2.5
O=C(C1CCCCC1)N1C[C@H](n2cc(C3CC3)nn2)[C@@H](O)C[C@@H]1c1ccccc1	-1.6	-2.7	-2.4	-0.3	-2.0%	3.6
O=C(c1ccc(CN2CCOCC2)cc1)N1CCN(Cc2ccccc2)CC1	-1.3	3.7	-15.0	-0.2	2.5%	-5.7
COc1ccc(NC(=O)N2CCCC(c3nc(-c4ccc(C(C)C)cc4)no3)C2)cc1 (stereo not given)	-0.2	16.7	-4.4	2.0	-0.5%[38.3 µM]	2.0
O=C(C1CCN(C2CCN(Cc3ccc4c(c3)CCO4)CC2)CC1)N1CCCC1	-2.3	0.2	-10.8	-0.5	-1.2%	3.5
CCOC(=O)c1ccc(-c2c(C(=O)OCC)oc3cc(O)c(CC)cc3c2=O)o1	2.0	-0.2	8.2	1.4	0.3%	-3.7
COC(=O)C1CCN(c2ccc(C(N)=O)cc2[N+](=O)[O-])CC1	0.8	2.7	6.9	0.8	-2.4%	-1.4
N#Cc1cc(-c2ccccc2)nc(Oc2ccccc2)n1	-3.2	x	-7.1	1.0	1.3%	9.1
O=C(Nc1ccc(S(=O)(=O)Nc2cnc3ccccc3n2)cc1)c1cc(F)c(F)cc1Cl	-3.2	0.5	-2.9	-1.2	1.9%	-25.2
COc1ccc(OC)c(C(=O)c2ccc(Cl)cc2)c1	-1.5	12.5	-11.9	1.8	0.4%	9.3
COc1cc(/C=N/N2CCN(Cc3ccc(Cl)cc3)CC2)cc(Br)c1O	10.5	x	-5.3	0.2	1.7%	-25.3
CC(=O)Nc1cccc(C(=O)N2CCN(S(=O)(=O)c3ccc4ccccc4c3)CC2)c1	-4.5	-1.4	-5.1	0.2	2.4%	0.0
CC1CC(N(C(=O)c2ccccc2Cl)c2ccccc2)c2ccccc2N1 (stereo not given)	-0.6	-3.8	20.3	1.3	5.1%	-12.9
Cc1ccc(C)n1-c1ncc(Br)cn1	4.1	5.8	-0.2	-0.2	4.6%	-0.8
Cc1ccc(CSCC(=O)Nc2ccc(F)cc2)cc1	-1.1	0.3	-17.8	0.4	2.0%	0.7
COc1ccc(OCCN2CCN(S(=O)(=O)c3ccccc3C(F)(F)F)CC2)cc1	-0.1	1.2	-1.2	-0.7	-1.0%	-14.4
Fc1ccc(-n2c(-c3ccco3)n[nH]c2=S)cc1	13.9	7.9	1.1	0.7	0.4%	7.1
O=C(NCCC1CCCCN1S(=O)(=O)c1ccc(F)cc1)C(=O)NCc1cccnc1 (stereo not given)	7.3	-3.1	-7.1	0.4	-0.8%	2.1
CC(C)N1C(=O)CC(Nc2ccc(N3CCOCC3)cc2)C1=O (stereo not given)	-0.8	-0.3	2.4	-0.2	-0.5%	-2.5
Nc1nonc1-c1nc2ccccc2n1CC(=O)N1CCCCC1	-3.8	1.5	-10.2	-1.5	0.4%	-3.1
Cc1c(N=C2N=C(NC(=O)c3cccs3)c3ccccc32)c(=O)n(-c2ccccc2)n1C	11.1	4.5	-2.6	12.2	0.4%	-1.6
Cc1ccc(CN2CCNC(=O)C2CC(=O)N2CCN(c3ncccn3)CC2)o1 (stereo not given)	-6.4	-9.1	-2.6	0.8	-1.0%	7.0
COc1cccc(N2CCN(C(=O)CCS(=O)(=O)c3ccc4c(c3)oc(=O)n4C)CC2)c1	-3.8	10.5	-7.8	-0.5&-1.0	0.8%&1.4%	-1.4

4 compounds drawn at random from the list so far, as already listed:
SMILES	D2 agonist	CtBP-E1A inh	D2 potentiator	TRPML1 ag	PINK1 expr mod	Six1-Eya2 blk
CC1CC(N(C(=O)c2ccccc2Cl)c2ccccc2)c2ccccc2N1 (stereo not given)	-0.6	-3.8	20.3	1.3	5.1%	-12.9
O=C(C1CCN(C2CCN(Cc3ccc4c(c3)CCO4)CC2)CC1)N1CCCC1	-2.3	0.2	-10.8	-0.5	-1.2%	3.5
N#Cc1cc(-c2ccccc2)nc(Oc2ccccc2)n1	-3.2	x	-7.1	1.0	1.3%	9.1
CC(=O)Nc1cccc(C(=O)N2CCN(S(=O)(=O)c3ccc4ccccc4c3)CC2)c1	-4.5	-1.4	-5.1	0.2	2.4%	0.0

Next records follow:
SMILES	D2 agonist	CtBP-E1A inh	D2 potentiator	TRPML1 ag	PINK1 expr mod	Six1-Eya2 blk
Cc1cc(C(F)F)n2nc(C(=O)Nc3ccc(S(=O)(=O)N4CCCCCC4)cc3)nc2n1	-4.3	-10.6	-4.8	-0.9	9.1%	-5.8
O=C(CSc1nnc(-c2ccco2)n1Cc1ccccc1)NCc1ccccc1	-3.7	1.5	-12.0	2.2	-0.6%	0.3
O=C(NCC(=O)N(Cc1cccs1)C(C(=O)NC1CCCCC1)c1ccco1)c1cccs1 (stereo not given)	-2.6	-0.6	5.5	-0.7	1.3%	-3.6
COc1cc(/C=N/NC(=O)C(=O)NCc2ccco2)cc(Cl)c1O	-6.4	x	-11.4	0.9	0.0%	-8.7
Cc1cccc2cc(CNC3CCCC3)c(Cl)nc12	-1.7	-3.3	-14.6	0.1	7.2%	-0.1
